# Assay outcomes: PubChem, National Center for Advancing Translational Sciences (NCATS)
# TRPML1 blocker = inhibitors of human TRPML1 channel; Q9GZU1; hit rate 0.02% among 390,000; TRPML1-inducible cells, Ca2+ dye fluorescence, FDSS; active compounds read low; inhibition of EC80 agonist-evoked calcium signal; activity change, negative = inhibition, % (test concentration not listed); in the data active means activity change below about -50%; inconclusive means about -30% to -50%; inactive means above about -30%;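 note: stimulus is agonist 54-4 at its EC80 concentration; % is set by controls: 0 for no effect and ±100 for the full control effect; compound concentration not given in the record; the text of the record puts the active cut at -80%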
# Target sequence (Q9GZU1 whole entry, looked up): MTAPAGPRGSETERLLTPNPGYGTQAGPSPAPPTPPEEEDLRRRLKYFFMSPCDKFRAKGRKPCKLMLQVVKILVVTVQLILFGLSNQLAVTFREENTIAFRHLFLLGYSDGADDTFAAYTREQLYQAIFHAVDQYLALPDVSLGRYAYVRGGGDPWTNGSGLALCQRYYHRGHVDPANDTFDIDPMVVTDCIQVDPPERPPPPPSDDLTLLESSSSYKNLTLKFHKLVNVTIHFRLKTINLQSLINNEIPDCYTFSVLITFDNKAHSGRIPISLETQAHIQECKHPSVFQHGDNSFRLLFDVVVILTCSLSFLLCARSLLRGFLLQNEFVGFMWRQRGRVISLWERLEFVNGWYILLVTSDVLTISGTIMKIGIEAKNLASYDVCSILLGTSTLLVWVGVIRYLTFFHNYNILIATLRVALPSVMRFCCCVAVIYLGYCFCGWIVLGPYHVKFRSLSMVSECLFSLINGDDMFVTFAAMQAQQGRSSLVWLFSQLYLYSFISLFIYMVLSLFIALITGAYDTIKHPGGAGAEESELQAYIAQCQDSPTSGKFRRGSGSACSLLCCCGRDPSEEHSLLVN
#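 Tet-induced TRPML1-DL cells loaded with Ca8 no-wash calcium dye were read kinetically on FDSS. Compound addition was followed by EC80 agonist 54-4 (4 uM final); inhibition was read over 110 s.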
# ClpP mod = qHTS Assay for Activators of ClpP | ATP-dependent Clp protease proteolytic subunit (Bacillus subtilis (strain 168)), P80244 | purified B. subtilis ClpP, FRET peptide cleavage, 20 min | hit rate 1.9% among 340,000 | Potency, µM (doses to about 57.5 µM), inactives show top-dose activity change, negative = active | AID 651965, 2013; active = well fitted falling curve with a large enough effect; inconclusive = small, poorly fitted or top-dose-only effect; inactive = no such curve, though single readings can be large or run the other way; note: potency is the fitted concentration of half-maximal effect; the source files actives as falling curves though it sought activators and does not explain the sign; nearly all actives have a fitted effect of over 65% in size; many hits overshoot -100%
# Target sequence (P80244 whole entry, looked up): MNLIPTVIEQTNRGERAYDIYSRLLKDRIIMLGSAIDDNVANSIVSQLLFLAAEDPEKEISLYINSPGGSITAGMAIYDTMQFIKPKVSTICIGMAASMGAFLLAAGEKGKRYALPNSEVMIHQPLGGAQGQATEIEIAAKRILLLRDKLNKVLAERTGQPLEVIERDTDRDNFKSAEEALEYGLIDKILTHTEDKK
#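 FRET quenching reversal measured ClpP activation: 10 microg/mL B. subtilis ClpP at pH 8 with the FRET-FV decapeptide, read at 430 nm after 320 nm excitation. The 20-min minus 0-min signal was scaled between DMSO/no-enzyme wells and ADEP (5.8 microM final).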
# Numbers without * were called inactive; ? = inconclusive. Not all compounds are listed; count on the stated rates, not on these rows.
# Fields – TRPML1 blocker	ClpP mod
Cc1nn(CC(=O)Nc2cc(F)ccc2F)c(=O)c2cccn12
 : 14	-0.4%
COc1ccc(CNC(=O)Cc2c(C)c3cc4c(C)coc4cc3oc2=O)cc1OC
 : -5	36%
Cc1cn2c(=O)cc(COC(=O)c3ccc(NC(=O)c4ccc(F)cc4)cc3)nc2s1
 : -30	-14%
CCOc1ccc(C(=O)Nc2c(C(=O)Nc3ccccc3OC)oc3ccccc23)cc1OCC
 : ?	-6.1%
COc1ccc(C(=O)NNc2ncnc3c2cnn3-c2ccc(C)c(Cl)c2)cc1
 : -16	1.1%
CC(C)C12CN3CC(C(C)C)(CN(C1)C3c1ccc(OCc3ccccc3)cc1)C2=O (stereo not drawn)
 : 14	0.8%
CCCc1nn2c(=O)cc(COC(=O)c3ccc4c(c3)OCO4)nc2s1
 : -4	-7.2%
Cc1cccc(NC(=O)CSc2nnc(CNC(=O)c3c(F)cccc3Cl)o2)c1C
 : 11	-0.4%
CCc1ccc(NC(=O)NCCc2c(C)nn(C)c2C)cc1
 : -15	0.0%
CCOc1ccc(CN2C(=O)c3ccccc3Sc3ccc(C(=O)O)cc32)cc1
 : 16	-0.9%
Cc1ccc(C2c3c(-c4cc(C)ccc4O)n[nH]c3C(=O)N2Cc2ccco2)cc1 (stereo not drawn)
 : 21	-1.9%
O=C(Nc1ccc(-c2nc3ccccc3o2)c(O)c1)c1cc(Cl)ccc1Cl
 : 26	?
CCc1cccc(NC(=O)CN(c2ccc(C)cc2)S(=O)(=O)c2cccs2)c1
 : -3	-1.5%
CC(C)Oc1ccc(C(=O)N2CCC(c3nc4ccccc4o3)CC2)cc1
 : -1	1.9%
COc1cccc(C(=O)Nc2nc3nc(C)c(C)c(=O)n3[nH]2)c1
 : 20	-1.4%
Nc1ncnc2c1ncn2[C@@H]1O[C@H](C(=O)N[C@@H](CO)c2ccccc2)[C@@H](O)[C@H]1O
 : -10	-0.8%
COc1cccc(NC(=O)N2CCN3CCCCC3C2)c1 (stereo not drawn)
 : 0	0.0%
O=C(CCCn1ccc2cc(S(=O)(=O)N3CCCC3)ccc21)NCc1ccc(Cl)cc1
 : 22	-7.6%
COc1ccc2oc(=O)cc(CN3CCN(c4ccccc4OC)CC3)c2c1
 : -7	-15%
Cc1ccc(-c2nn(CC(=O)NC3CCCC3)c3c2cnc2ccc(F)cc23)cc1C
 : 5	-8.2%
COc1ccc2c(c1)CCc1c(C(=O)Nc3cc(C)ccc3O)noc1-2
 : -14	4.3%
Cc1ccc(C)c(N2CCN(S(=O)(=O)c3c(C(=O)N4CCC(C)CC4)c(C)n(C)c3C)CC2)c1
 : -13	1.3%
CCc1ccc(OCc2nc(-c3ccc(-n4cccc4)cc3)no2)cc1
 : -19	-4.9%
CCOc1ccccc1NC(=O)C1CCN(S(=O)(=O)c2cc(Br)cc3c2N(C(C)=O)CC3)CC1
 : 7	-1.9%
Cc1cccc(N2CCN(C(=O)CCNS(=O)(=O)c3ccc4c(c3)CCN4C(=O)C3CC3)CC2)c1C
 : -6	-7.8%
COc1ccc(CCNC(=O)c2ccc(CSCc3ccc(C)cc3)o2)cc1OC
 : 7	0.9%
Cc1cccc(-c2nnn3c2nc(NCCc2ccc(S(N)(=O)=O)cc2)c2cc(Cl)ccc23)c1
 : -19	51%
CCn1c(=O)c2cc(C(=O)N(CC(C)C)CC(C)C)sc2c2ccccc21
 : 74	-1.7%
Cc1c(C(=O)NCc2ccccc2Cl)sc2nc[nH]c(=O)c12
 : -3	40µM*
Cc1ccc(C(=O)c2c(N)c(C(=O)Nc3ccccc3Cl)c3ccccn23)cc1
 : -17	-29%

# Taken from the entries so far for reference:
# Fields – TRPML1 blocker	ClpP mod
Cc1c(C(=O)NCc2ccccc2Cl)sc2nc[nH]c(=O)c12
 : -3	40µM*
Cc1ccc(C(=O)c2c(N)c(C(=O)Nc3ccccc3Cl)c3ccccn23)cc1
 : -17	-29%

# Entries of single compounds from above. Order of values: TRPML1 blocker, ClpP mod
# CCn1c(=O)c2cc(C(=O)N(CC(C)C)CC(C)C)sc2c2ccccc21 in the list: 74, -1.7%
# Cc1cn2c(=O)cc(COC(=O)c3ccc(NC(=O)c4ccc(F)cc4)cc3)nc2s1 in the list: -30, -14%

# Going on with the list:
# Fields – TRPML1 blocker	ClpP mod
COc1ccc(C(=O)c2sc(Nc3cc(Cl)ccc3C)nc2N)cc1OC
 : -3	-0.1%
Cc1ccc(CN(Cc2ccco2)C(=O)c2ccccc2Cl)o1
 : 5	1.5%
COc1ccccc1CNC(=O)C1CCCN(c2nnc(-n3c(C)ccc3C)s2)C1 (stereo not drawn)
 : -9	-3.8%
O=C(CNC(=O)c1ccc(Cl)cc1)OCc1cc(=O)n2nc(C3CC3)sc2n1
 : -7	-6.8%
Cc1ccc(CNC(=O)c2c3c(nc4ccccc24)C(=O)N(C2CCCCC2)C3)cc1
 : 8	-19%
COC(=O)c1ccc2nc(-c3cccc(Cl)c3)c(Cc3ccsc3)n2c1
 : 34	?
CCOC(=O)c1c(C)[nH]c(C)c1S(=O)(=O)N(C)CC(=O)Nc1cccc(Cl)c1C
 : -4	0.7%
CCCOc1ccc(CNC(=O)c2[nH]c3cc(OC)ccc3c2Sc2ccccc2)cc1
 : -8	-8.4%
COc1ccccc1CNC(=O)C(=O)NCC(c1cccs1)S(=O)(=O)c1cccs1 (stereo not drawn)
 : -11	-4.5%
Cc1ccc(-n2c(CCC(=O)O)ccc2-c2cccs2)cc1Cl
 : -7	-6.1%
Cc1cccc(CN2CCC(CNC(=O)c3c(C)oc4ncnc(N5CCCCC5)c34)CC2)c1
 : -10	0.9%
COc1ccc(C(=O)/C=C/c2cn(CC(O)CN3CCc4ccccc43)c3ccccc23)cc1 (stereo not drawn)
 : -5	-7.0%
COc1ccccc1N1CCN(C(=O)Cn2c(=O)nc(-c3ccccc3)c3cc(Cl)ccc32)CC1
 : -8	?
CCOc1ccc(CNC(=O)C(C)n2ncn3cccc3c2=O)cc1 (stereo not drawn)
 : 5	-0.3%
COc1ccc2c(c1)cc1c(=O)n(CC(=O)NCCCc3ccccc3)nc(C)n12
 : 10	?
COc1ccc(-c2onc(C)c2C)cc1S(=O)(=O)N(C)Cc1ccco1
 : -14	1.0%
N#C/C(=C\c1ccc(-c2ccc(F)cc2F)o1)c1nc2ccccc2[nH]1
 : -16	-1.4%
COc1cccc(-n2c(SCC(=O)Nc3nnc(C)s3)nc3c([nH]c4ccccc43)c2=O)c1
 : -4	-16%
CNC(=O)c1ccc(NC(=O)COc2ccc(-c3nn(C)c(=O)c4ccccc34)cc2)cc1
 : 9	-19%
COc1ccc(-c2onc(C)c2C)cc1S(=O)(=O)NCC1CCN(Cc2cccc(F)c2)CC1
 : 4	-1.4%
CN(CC(=O)NCc1ccc(Cl)cc1)S(=O)(=O)c1ccc2c(c1)c(=O)n(C)c(=O)n2C
 : 7	-2.4%
O=C(Nc1ccc(S(=O)(=O)N2CCC(c3nc4ccccc4s3)CC2)cc1)c1ccccc1
 : 4	0.8%
CCCC(CCC)C(=O)Nc1cccc(-c2nc3cccnc3s2)c1
 : 0	-6.9%
CCC(=O)c1cc2c(cc1NC(=O)c1ccccc1F)OCCO2
 : -18	11%
Cc1ccc(Cl)cc1NCc1nnc2n1CCCCC2
 : -23	-0.3%
COc1ccc(CNC(=O)c2ccc3nc(CCc4ccccc4)oc3c2)cc1OC
 : 24	-26%
COc1ccc(-n2c(SCC(=O)N3CCc4ccccc43)nc3c([nH]c4ccccc43)c2=O)cc1
 : 30	-5.8%
COc1cc(F)c(S(=O)(=O)Nc2c(C)n(C)n(-c3ccccc3)c2=O)cc1OC
 : 19	-0.4%
Fc1ccc(-n2ncc3c(Nc4ccc5c(c4)OCCO5)ncnc32)cc1
 : -14	2.9%
CN(C)C=NC(=O)c1cc2c(n(-c3ccccc3)c1=O)CC(C)(C)CC2=O
 : -8	4.0%

# Four entries from above, as labelled records.
molecule: Cc1c(C(=O)NCc2ccccc2Cl)sc2nc[nH]c(=O)c12
  TRPML1 blocker: -3 | ClpP mod: 40µM*
molecule: Cc1ccc(C(=O)c2c(N)c(C(=O)Nc3ccccc3Cl)c3ccccn23)cc1
  TRPML1 blocker: -17 | ClpP mod: -29%
molecule: COc1ccc(C(=O)c2sc(Nc3cc(Cl)ccc3C)nc2N)cc1OC
  TRPML1 blocker: -3 | ClpP mod: -0.1%
molecule: Cc1ccc(CN(Cc2ccco2)C(=O)c2ccccc2Cl)o1
  TRPML1 blocker: 5 | ClpP mod: 1.5%

# New compounds follow:
# Fields – TRPML1 blocker	ClpP mod
CCOC(=O)c1ccc(N2C(=O)c3[nH]nc(-c4ccccc4)c3C2c2ccc(CC)cc2)cc1 (stereo not drawn)
 : -2	-16%
O=C(NCC(c1ccc2c(c1)OCO2)N1CCOCC1)C(=O)Nc1ccccc1 (stereo not drawn)
 : -4	1.4%
CC(=O)N1CCCc2ccc(NS(=O)(=O)c3ccc(F)cc3F)cc21
 : 3	-8.2%
O=C(NC(c1ccccc1)c1ccc2ccccc2n1)C1CCN(Cc2ccc(Cl)c(Cl)c2)CC1 (stereo not drawn)
 : ?	-8.0%
Cc1ccc(S(=O)(=O)n2nc(-c3ccc(Cl)cc3)nc2NCc2ccc(F)cc2)cc1
 : -6	1.1%
COc1cccc(CNC(=O)C(=O)NCC(c2ccc3c(c2)OCO3)N2CCOCC2)c1 (stereo not drawn)
 : -6	-3.0%
COc1ccccc1-c1noc(-c2ccc(N3CCC(C)CC3)c([N+](=O)[O-])c2)n1
 : 52	-1.2%
COc1ccc(CN2C[C@@H](CO)O[C@@H](n3cnc4c(NCCN(C)C)ncnc43)C2)cc1
 : -6	-2.1%
O=C(Nc1ccccc1Cl)c1ccc(F)c(S(=O)(=O)NCc2ccc(Cl)c(Cl)c2)c1
 : 19	-13%
COc1cc(NC(=O)[C@H]2O[C@@H](n3cnc4c(N)ncnc43)[C@H](O)[C@@H]2O)cc(OC)c1OC
 : -17	-5.0%
c1ccc2c(c1)ncc1nncn12
 : 23	-15%
CC(C)c1nc2ccc(C(=O)NCc3ccc(N(C)C)cc3)cc2o1
 : 2	-0.8%
COc1cc(S(=O)(=O)NCCc2c(C)[nH]c3ccc(C)cc23)ccc1Br
 : 4	-8.5%
Cc1ccc(C)c(S(=O)(=O)c2nnn3c2nc(Nc2ccc(C)c(C)c2)c2ccccc23)c1
 : 12	-12%
O=C(NCc1ccccc1Br)c1ccc2c(c1)nc1n2CCOC1
 : -8	1.7%
CCOC(=O)c1c(C)[nH]c(C)c1S(=O)(=O)N1CCCC(C(=O)N2CCN(c3cc(C)ccc3C)CC2)C1 (stereo not drawn)
 : 20	-1.3%
COc1cc(Cl)c(NS(=O)(=O)c2ccc3c(c2)CC(C)N3C(=O)C2CCC2)c(OC)c1 (stereo not drawn)
 : 8	0.7%
O=S(=O)(NCC(c1ccco1)S(=O)(=O)c1ccccc1)c1ccccc1 (stereo not drawn)
 : ?	0.8%
CCOC(=O)c1ccc(NC(=O)CSc2c(C(C)C)cnc3c2c(=O)n(C)c(=O)n3C)cc1
 : -13	-1.9%
Oc1ccccc1-c1nc(/C=C/c2ccccc2Cl)nn1-c1ccccc1
 : 16	-26%
CC1CCCN(c2c(S(=O)(=O)c3ccccc3)cnc3ccc(Cl)cc23)C1 (stereo not drawn)
 : 18	-4.2%
CCOc1ccc(S(=O)(=O)N(CC(=O)Nc2ccc3c(c2)OCO3)c2ccccc2)cc1
 : -3	2.0%
COc1cc2c(c(OC)c1)C(c1cccc(F)c1F)CC(=O)N2 (stereo not drawn)
 : -13	0.8%
CCOc1ccc(NC(=O)C2CC(=O)N(c3ccc(C(C)C)cc3)C2)cc1 (stereo not drawn)
 : 22	1.5%
O=C(NCc1ccc(Cl)nc1)c1csc(COCCO)n1
 : -2	1.0%
CC(C)c1ccc(Cn2c(COc3ccccc3)nc3ccccc32)cc1
 : -11	-6.1%
CCS(=O)(=O)c1nc(S(=O)(=O)c2ccc(C)cc2)c(NCCCOC)s1
 : 3	-1.4%
Cc1ccc(C)c(NC(=O)CN2CCN(C3CCCCC3)C(=O)C2=O)c1
 : -5	0.9%
CC(=O)c1ccc(N2CCN(C3C(=O)c4ccccc4N3C(C)=O)CC2)cc1 (stereo not drawn)
 : 25	-15%
Nc1ncc(S(=O)(=O)NCc2ccc(Cl)cc2)cn1
 : 4	-3.3%
CCOc1cc(Cn2c(-c3ccc(O)c(OCC)c3)nc3ccccc32)ccc1O
 : -1	10µM*
CSc1nnc2n(-c3cccc(C)c3)c(=O)c3c4c(sc3n12)CCCC4
 : 5	-1.2%
Cc1cc(C)cc(NS(=O)(=O)c2ccc(-c3cc(C)no3)s2)c1
 : -12	0.5%
COc1cc(NC(=O)CSC2=Nc3ccccc3N=C(c3ccc(F)cc3)C2)cc(OC)c1
 : -3	0.1%
Cc1ccc2nc(-c3cccnc3)c(Nc3ccc(C(C)C)cc3)n2c1
 : -5	-13%
CCc1nnc2c3ccccc3nc(Nc3ccccc3OC)n12
 : -5	?
